NPYLR7 agonist: mosquito NPYLR7 agonism; AID 1259423; activation, % at 10 µM; HEK293T NPYLR7/Galpha15, GCaMP6s calcium fluorescence; 0.15% of 270,000 active; in the data active means activation above about 40%;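 further: 0% = vehicle and 100% = reference agonist at the receptor; some compounds past the cut are filed as inactive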
NPYLR7 agonist max-min: further read-out of NPYLR7 agonist, marked with its call; activation, %; measured here: Max-Min RFU normalised activation; some inactives read as strong as hits;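 span of the calcium signal over five minutes; 0% = vehicle and 100% = native peptide agonist; compound fluorescence can raise it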
* = called active by the depositor; & = joins results of further samples. A portion of the library; count on the stated rates, not on these rows.

SMILES	NPYLR7 agonist	NPYLR7 agonist max-min
O=C(NCCCN1CCOCC1)c1ccc(CSc2nc(Cl)cc(N3CCC(Cc4ccccc4)CC3)n2)cc1	0.4	4.8
CCCOCCN1CC(C(=O)O)CC1=O (stereo unspecified)	7.9	5.2
CCCCn1cnc2sc3c(c2c1=N)CCCCC3	6.0	6.6
CN1CCN(c2nc3nonc3nc2Nc2ccc(F)cc2)CC1	-12.7	-16.3
O=S(=O)(c1ccccc1Cl)N1CCC(c2c[nH]c3ccccc23)CC1	2.3	-1.8
Cc1nccn1CCNC(=O)C1(c2ccccc2)CCOCC1	6.1	4.1
N#CC(c1ccccn1)c1cc(N2CCN(C(=O)/C=C/c3ccoc3)CC2)ncn1 (stereo unspecified)	-2.3	-3.2
CC(=O)Oc1c(-c2ccc(NC(=O)c3ccc(F)cc3)cc2)c(-c2ccc(F)cc2)nn1-c1ccc(F)cc1	-2.7	4.5
COc1ccc(C(=O)C2CCCN(c3cc(C(C)C)ncn3)C2)cc1F (stereo unspecified)	11.6	10.7
CCOc1cc(Cl)ccc1NC(=O)N(C)Cc1cccnc1	4.2	2.2
COc1cccc(CN(Cc2ccc(C(O)(c3cccs3)c3cccs3)o2)C2CC2)c1OC	11.5	10.4
O=C(c1cc2ccccc2s1)N1CC(=O)N2CCc3ccccc3C2C1 (stereo unspecified)	-0.5	13.6
COc1ccc(-n2ncc(C(=O)O)c2-c2ccccc2)cc1	-6.3	-16.0
O=S(=O)(NC1CCN(S(=O)(=O)c2ccc(Cl)cc2F)CC1)c1ccccc1	-0.3	-1.7
COC(=O)CC1CN(Cc2cnn(-c3ccccc3)c2)CCO1 (stereo unspecified)	2.0	1.2
COc1ccc(N2CCn3c(SC(C)c4ccccc4)nnc32)cc1 (stereo unspecified)	2.3	2.2
O=C(OCCNC(=O)c1cc2ccccc2oc1=O)c1ccccc1	-15.7	-18.1
Cc1nnc(SCCNC(=O)Cc2cnc3c(C)cccn23)s1	9.3	6.6
O=C(NCc1ccco1)c1ccc(CSc2nnc(-c3ccccc3Cl)n2Cc2ccccc2)cc1	8.1	9.8
Fc1ccccc1N1CCN(c2nc(-c3ccccc3)nc3ccccc23)CC1	4.7	14.4

The closing five records of the part above lead into the next:
SMILES	NPYLR7 agonist	NPYLR7 agonist max-min
COc1ccc(N2CCn3c(SC(C)c4ccccc4)nnc32)cc1 (stereo unspecified)	2.3	2.2
O=C(OCCNC(=O)c1cc2ccccc2oc1=O)c1ccccc1	-15.7	-18.1
Cc1nnc(SCCNC(=O)Cc2cnc3c(C)cccn23)s1	9.3	6.6
O=C(NCc1ccco1)c1ccc(CSc2nnc(-c3ccccc3Cl)n2Cc2ccccc2)cc1	8.1	9.8
Fc1ccccc1N1CCN(c2nc(-c3ccccc3)nc3ccccc23)CC1	4.7	14.4
C=CCN(CC(=O)N1CCc2sccc2C1COc1ccc(Cl)c(C)c1)C(=O)c1ccc2c(c1)OCO2 (stereo unspecified)	-2.0	1.9
COc1cc(C(=O)Nc2c3c(nn2C(C)(C)C)CSC3)cc(OC)c1OC	-0.1	-0.1
COc1ccc(CN(Cc2ccc(F)cc2)CC(O)COCc2ccccc2)cc1OC (stereo unspecified)	-7.5	-15.7
O=C(CN1C(=O)c2cccc3cccc1c23)Nc1ccc2ccccc2c1	6.7	7.1
CCN1C(=O)c2ccc(-c3ccc(/C=C4/C(=O)N(c5ccc(C(=O)O)cc5)N=C4C)o3)cc2C1=O	16.8	6.9
COc1ccc(C(NC(=O)C2CCN(CCOc3ccccc3OC)CC2)c2ccccn2)cc1 (stereo unspecified)	33.7	25.1
CCOc1ccc(C(=O)NCCc2cc3c(OC)ccc(OC)c3[nH]c2=O)cc1OCC	0.1	44.0
O=C1c2ccccc2C(=O)N1CCCCN(C(=O)c1cc(Cl)cc(Cl)c1)c1ccc(Cl)cc1	-3.8	-14.6
Cc1nnc2ccc(N3CCN(C(=O)COc4ccc5c(c4)OCO5)CC3)nn12	2.2	8.3
O=C(CSc1nccn2nc(-c3ccccc3)cc12)NCc1ccc(F)cc1	-2.0	-6.6
Cc1cccc(C(=O)N2C(C(=O)N3CCOCC3)COC23CCN(C(=O)CC(C)(C)C)CC3)c1 (stereo unspecified)	1.5	9.9
COC(=O)CSc1ncnc2c1nnn2C	1.0	4.7
CCC(C(=O)N(CC(=O)N(Cc1ccc2c(c1)OCO2)Cc1cccs1)C(C)C)c1ccccc1 (stereo unspecified)	2.8	12.4
CCOc1ccc(NC(=O)N2CCN(c3ccc4nnc(C)n4n3)CC2)cc1	4.2	9.5
COCc1ccccc1NC(=O)c1ccc(=O)n(-c2ccccc2)n1	-0.3	-1.0
Cc1cc(C=C(C#N)c2nc(-c3cccs3)cs2)c(C)n1C1CC1	-2.0	-4.5
Cn1ncc(Oc2ccc(F)cc2F)c(Nc2cccc(C(=O)NCc3cccnc3)c2)c1=O	-2.1	0.2
CS(=O)(=O)NCC(=O)NCc1ccc2sccc2c1	5.3	2.1
O=C(O)c1oc2ccc(Cl)cc2c1-n1cccc1	-1.0	-1.6
Cc1ccc(Sc2c(C)nn(S(=O)(=O)c3cccs3)c2C)cc1	-0.1	0.7
CC(C)N=c1scc(-c2ccc(F)cc2)n1N=Cc1cc2c(cc1[N+](=O)[O-])OCO2	-1.6	-2.9
CCN1C(=O)NC(c2ccc(Cl)cc2Cl)C2=C1CN(C(C)C(=O)N1CCN(c3ccccn3)CC1)C2=O (stereo unspecified)	1.2	21.3
CCOC(=O)c1cc(C(C)(C)C)n(C2CCN(C(=O)C(Cc3ccccc3F)NC(C)=O)CC2)n1 (stereo unspecified)	-7.8	-18.4
O=C(CN1CCN(CC(F)(F)F)c2ccccc21)NC1CC1	0.7	0.3
CCCCN(CC(=O)Nc1cc(-c2ccccc2)nn1-c1ccc(C)cc1)C(=O)c1ccc(C)c([N+](=O)[O-])c1	-4.7	-4.6
COc1cccc(C(=O)N(CC(=O)N(Cc2cccn2Cc2ccccc2Cl)C2CCCCC2)CC(C)C)c1	-8.5	-14.8
CCOC(=O)C1C(=O)NCC12CCN(C(=O)c1csc(-c3cccs3)n1)CC2 (stereo unspecified)	8.4	22.0
CN1CCCC1CCN1CCc2onc(-c3ccc(C(F)(F)F)cc3)c2C1 (stereo unspecified)	11.9	9.7
O=c1[nH]c(=S)n(CCC2=CCCCC2)c(O)c1C=C1C=CC=N1	-7.3	-14.8
COCC(=O)N(CCN1CCCCC1)CC1CCCN(C2CCCC2)C1 (stereo unspecified)	4.5	2.3
COc1cn(CC(=O)NC2CCCC2)c(CSc2nnnn2C)cc1=O	-5.5	-9.5
CC(C)C(C(=O)Nc1ncn[nH]1)c1ccc(Cl)cc1 (stereo unspecified)	-2.6	-2.8
O=C(c1cc(F)ccc1Cl)N1CCC(Cc2ccccc2)CC1	5.2	5.2
COc1ccc(/C=C2\SC(=S)N(C3CCS(=O)(=O)C3)C2=O)cc1OC (stereo unspecified)	6.1	6.6
COc1cc(CN(C2CC2)S(=O)(=O)c2ccc(C(C)=O)cc2)ccc1OC(F)F	3.7	3.2
O=C(NCC1CCCO1)C1CCN(C2CCN(CC#Cc3ccccc3)CC2)CC1 (stereo unspecified)	15.4	3.6
O=C(NC1CC1)C1CCN(C2CCN(C(=O)C#Cc3ccccc3)CC2)CC1	6.1&8.0	6.3&3.8
CCCn1ccnc1SCC(=O)NC(C)C12CC3CC(CC(C3)C1)C2 (stereo unspecified)	0.1	8.4
CC1=CC2=NC(C(F)(F)F)(C(F)(F)F)NC(=O)N2C=C1	6.1	-1.6
COc1nc(-c2ccccc2C)n(-c2ccc(NC(=O)c3ccc4c(c3)OCO4)cc2)n1	29.2	29.6
CCC(C)NC(=O)CSc1nn(-c2ccccc2)c(=O)[nH]1 (stereo unspecified)	2.4&0.4	4.6&-0.6
c1ccc(-c2ccc(CN3CCCC(OCc4cccnc4)C3)cc2)nc1 (stereo unspecified)	1.3	3.1
Cc1cc(=O)n2c(-c3cccc(NC(=O)c4ccc(C(F)(F)F)cc4)c3)csc2n1	11.5	3.8
CC(=O)CC1(O)C(=O)N(CCCOc2ccccc2C)c2ccc(C)cc21 (stereo unspecified)	-2.2	-3.5
C=c1ccccc1=c1[nH]c(=Cc2ccccc2[N+](=O)[O-])c(=O)o1	1.1	-0.5
Cc1nc2ccc(S(=O)(=O)NCCn3nc(-c4ccco4)ccc3=O)cc2s1	-2.1	-5.0
CSc1ccc(-c2noc(Cn3ccn4nc(-c5cccs5)cc4c3=O)n2)cc1	0.8	-0.6
CCc1ccc[n+](C2=C(c3c(C(C)C)[nH]n(-c4ccc(Cl)cc4)c3=O)C(=O)N(CC(C)C)C2=O)c1	0.7	10.4
O=C1CC2(CCN(C(=O)c3ccc4cccc(Cl)c4n3)CC2)CN1	6.4	-1.8
C=CCNc1nc(-c2cc(F)ccc2F)cs1	6.8	2.6
CCOC(=O)c1c(NC(=O)CCCl)sc2c1CCCCC2	-9.7	-13.3
Cc1ccc(-c2nnc(SCc3ccc(C(=O)NCc4ccc5c(c4)OCO5)cc3)n2-c2ccc(F)cc2)cc1	1.1	6.2
O=C(NCc1ccccn1)c1cccc(OC2CCN(C(=O)CC3=CCCCC3)CC2)c1	0.9	-1.6
COc1cccc(CN2CCN(C(=O)c3cc(C)[nH]n3)CC2=O)c1	-4.6	-6.2
O=C(CCCn1cnc2ccccc2c1=O)NCc1c(F)ccc(F)c1F	3.1	1.9
Cc1nc2ncnn2c(N2CCN(C(=O)COc3cccc(Cl)c3)CC2)c1Cc1ccccc1	26.7	12.6
COc1cccc(Cn2c(=O)n(Cc3ccccc3)c(=O)c3oc4ccccc4c32)c1	-0.8	0.1
CCc1csc(CCNC(=O)C2CCC(=O)N(Cc3cccc(C(F)(F)F)c3)C2)n1 (stereo unspecified)	11.8	6.8
COCCCN(Cc1nc(C(=O)OC)cs1)C(=O)c1ccccc1Br	21.5	21.5
COC(=O)c1c(C)cccc1S(=O)(=O)Nc1cccc(C#N)c1	0.0	-4.6

4 entries from above, sorted by SMILES length, lowest first.
SMILES	NPYLR7 agonist	NPYLR7 agonist max-min
CS(=O)(=O)NCC(=O)NCc1ccc2sccc2c1	5.3	2.1
Cc1nccn1CCNC(=O)C1(c2ccccc2)CCOCC1	6.1	4.1
Cc1cc(C=C(C#N)c2nc(-c3cccs3)cs2)c(C)n1C1CC1	-2.0	-4.5
COc1cccc(C(=O)N(CC(=O)N(Cc2cccn2Cc2ccccc2Cl)C2CCCCC2)CC(C)C)c1	-8.5	-14.8

2 compounds picked at random from those above, as already listed:
SMILES	NPYLR7 agonist	NPYLR7 agonist max-min
O=C(NCc1ccccn1)c1cccc(OC2CCN(C(=O)CC3=CCCCC3)CC2)c1	0.9	-1.6
C=c1ccccc1=c1[nH]c(=Cc2ccccc2[N+](=O)[O-])c(=O)o1	1.1	-0.5

Some of the entries so far, bar-delimited:
compound | NPYLR7 agonist | NPYLR7 agonist max-min
c1ccc(-c2ccc(CN3CCCC(OCc4cccnc4)C3)cc2)nc1 (stereo unspecified) | 1.3 | 3.1
COC(=O)c1c(C)cccc1S(=O)(=O)Nc1cccc(C#N)c1 | 0.0 | -4.6
Cc1nc2ncnn2c(N2CCN(C(=O)COc3cccc(Cl)c3)CC2)c1Cc1ccccc1 | 26.7 | 12.6

Later entries:
SMILES	NPYLR7 agonist	NPYLR7 agonist max-min
CCCCOC1CC(N(C)Cc2ccc(S(=O)(=O)N(C)C)o2)C1(C)C (stereo unspecified)	0.7	-4.8
Cc1cc(C(=O)Nc2cc(S(=O)(=O)N3CCCCC3)ccc2C)on1	0.0	-5.3
CC(=O)Nc1cccc(C(=O)N2CCOC(COc3ccc(C)cc3)C2)c1 (stereo unspecified)	-2.1	-3.3
CN1CCCn2nc(C(=O)NC(Cn3cccn3)c3ccccc3)cc2C1 (stereo unspecified)	1.3	-1.4
COc1cccc(-c2noc3c2CN(C(=O)c2cc(C)oc2C)CC3)c1	6.0	3.7
CCC(CC)C(=O)N1CCCN(Cc2cc(=O)c(OCc3ccc(C(C)(C)C)cc3)co2)CC1	-1.6	-6.9
CN(CCOc1ccc(Cl)cc1)Cc1cc2c(cc1O)OCO2	-0.2	5.3
C=C(C)C1CCC(C)OC1CN1CCOCC1 (stereo unspecified)	12.1	3.7
CCCCn1cc(C(C)(C)C)c(C#N)c1NC(C)=O	-2.4	-1.6
Cc1ccc(NC(=O)CSc2nc3ccccc3s2)c(C)c1	-12.2	-22.6
N=C(N)N1CCN(Cc2ccc3c(c2)OCO3)CC1	1.1	-1.4
CC(=O)NCCc1ccc(C(=O)N(C)c2ccccc2)cc1	6.3	3.1
